KCNQ2 pot: potentiators of rat KCNQ2 potassium channel | CHO-K1 KCNQ2, FluxOR thallium flux fluorescence; active compounds read high | hit rate 0.54% among 310,000 | B-score at 10 µM | AID 2239, 2010 | Potassium voltage-gated channel subfamily KQT member 2 (Rattus norvegicus), O88943;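 active = fluorescence ratio B-score at least 3 SD of library B-scores, with initial fluorescence B-score within 3 SD, cut at about 5.3 in these data; same plate scores as AID 2156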;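 also: B-score of peak minus minimum over baseline fluorescence ratio after K+ and Tl+ stimulus; positive B-score means potentiation of KCNQ2 with more thallium influx and brighter signal; only the inactives scoring about 0 or higher are listed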
Target sequence (O88943 whole entry, looked up): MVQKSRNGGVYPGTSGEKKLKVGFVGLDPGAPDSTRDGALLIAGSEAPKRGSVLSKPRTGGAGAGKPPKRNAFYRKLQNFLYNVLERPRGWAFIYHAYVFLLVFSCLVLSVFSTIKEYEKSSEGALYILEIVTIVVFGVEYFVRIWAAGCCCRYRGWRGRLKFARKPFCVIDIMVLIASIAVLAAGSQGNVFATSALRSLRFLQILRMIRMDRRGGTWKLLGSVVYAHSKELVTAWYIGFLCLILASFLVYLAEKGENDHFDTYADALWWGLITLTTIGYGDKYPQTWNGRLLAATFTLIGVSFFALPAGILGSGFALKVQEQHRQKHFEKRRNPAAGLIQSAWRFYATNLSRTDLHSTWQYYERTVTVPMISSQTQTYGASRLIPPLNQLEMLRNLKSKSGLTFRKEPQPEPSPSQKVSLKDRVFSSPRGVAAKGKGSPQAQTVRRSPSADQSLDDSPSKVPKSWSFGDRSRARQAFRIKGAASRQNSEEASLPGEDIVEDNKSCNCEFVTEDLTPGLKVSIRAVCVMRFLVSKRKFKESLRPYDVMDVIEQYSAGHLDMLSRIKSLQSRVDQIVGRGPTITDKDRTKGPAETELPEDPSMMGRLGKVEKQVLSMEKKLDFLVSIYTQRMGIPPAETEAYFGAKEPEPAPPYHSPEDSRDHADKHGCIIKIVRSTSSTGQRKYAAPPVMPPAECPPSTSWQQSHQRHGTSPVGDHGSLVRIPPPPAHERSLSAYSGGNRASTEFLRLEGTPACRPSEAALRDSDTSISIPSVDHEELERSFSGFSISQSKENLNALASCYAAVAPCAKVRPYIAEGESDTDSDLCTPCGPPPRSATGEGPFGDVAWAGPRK
KCNQ2 pot baseline: further read-out of KCNQ2 pot, marked with its call; B-score; compound at 10 µM; measured here: initial fluorescence intensity artifact check;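 brightness before thallium and not channel activity; 0 = typical well and far values either way flag optical interference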
Active calls of the source: *; · = no result given.

molecule	KCNQ2 pot	KCNQ2 pot baseline
CN(C)S(=O)(=O)c1ccc(N2CCCC2)c(C(=O)NCCc2ccc(F)cc2)c1	2.2	1.4
COC(=O)CSc1nnc(SCc2ccc(Cl)cc2)s1	1.1	1.1
Cc1cccc(CCNC(=O)C2CCC(=O)N2Cc2ccc(F)cc2)c1 (stereo not drawn)	0.64	-0.04
COc1ccc(NC(=O)C2CCN(S(=O)(=O)c3ccc(N4CCCC4=O)cc3)CC2)c(OC)c1	1.6	0.95
Cc1ccc(C(=O)Nc2c(N)nc(SCC(=O)NCC3CCCO3)[nH]c2=O)cc1 (stereo not drawn)	1.1	0.16
COc1cccc(CNC(=O)CSc2ccc(-c3ccccn3)nn2)c1	1.5	0.25
Cc1cc(NC(=O)CSc2nnc(-c3ccco3)n2Cc2ccccc2)no1	0.18	-1.3
CC(C)NC(=O)NS(=O)(=O)c1cnccc1NC1CC2CCC1C2 (stereo not drawn)	1.9	2.2
O=C(NCCN1CCOCC1)c1cc(-c2cccs2)nc2ccccc12	0.5	2.2
COc1ccc(C(=O)Nn2cnnc2)c(OC)c1	1.3	-0.11
Cn1nccc1C(=O)Nn1cnnc1	2.2	-0.46
O=C(/C=C\Nc1ccccn1)c1ccccc1	0.27	-0.33
O=C(Nc1ccc([N+](=O)[O-])cc1)c1cc(-c2ccccn2)nc2c(Cl)cccc12	0.27	-1.6
CN(C)/C=C(/C(=O)c1ccc(F)cc1)S(=O)(=O)c1ccc(F)cc1	2	0.19
CCN(CC(=O)Nc1ccc(NC(C)=O)cc1)C(=O)c1cc(S(=O)(=O)N2CCCCCC2)ccc1OC	0.63	0.28
Cc1[nH]c2ccccc2c1C(=O)CN1CCC2(CC1)OCCO2	1.2	-0.69
CC(C)Oc1ccccc1OCCN(C)C	0.24	0.02
Cc1cc(NC(=O)Nc2ccc(Cl)cc2)n(C(C)(C)C)n1	0.52	0.63
CCCCNC(=S)N(C)/N=C/c1ccc(OCc2ccc(C(=O)OC)cc2)c(OC)c1	0.71	-0.01
CC(=O)c1cc(C)ccc1OC(=O)CCN1C(=O)C2C3c4ccccc4C(c4ccccc43)C2C1=O (stereo not drawn)	0.83	-0.02
Cc1noc(C(=O)NCc2cccnc2)c1Cl	1	-0.07
O=c1cc[nH]c2cc(C(F)(F)F)ccc12	2.1	-1.2
CC/C(=N\Nc1nncc2ccccc12)c1ccc(F)cc1	0.01	-1.3
CN1CCCN(C(=O)c2cccc(Br)c2)CC1	0.55	-0.62
Cc1cccc(Nc2nnc(C)c(=O)n2N)c1	0.89	1.6
COCC(C)NS(=O)(=O)c1ccc(NC(=O)c2ccccn2)cc1 (stereo not drawn)	0.35	0.13
OCC(O)CSc1nc(-c2ccccc2)nc2c1CCC2 (stereo not drawn)	1.7	-0.51
O=C(CN1C(=O)c2ccccc2S1(=O)=O)NCCc1ccccc1	0.41	-0.02
COc1cccc(NC(=O)CS(=O)(=O)Cc2nc(-c3ccc(C)cc3)oc2C)c1	0.39	0.88
O=S(=O)(Nc1nccs1)c1ccc(NS(=O)(=O)c2cccs2)cc1	1.1	0.31
O=C(CN(Cc1ccccc1)C(=O)CCC(=O)Nc1nccs1)NCC1CCCO1 (stereo not drawn)	1.2	-0.37
NS(=O)(=O)c1cccc(NC(=O)CCCC2CCCCC2)c1	2.5	-0.01
CCN(CC)C(=O)CSc1nnc(CCNC(=O)OC(C)(C)C)o1	0.48	0.46
Cc1ccc(C(=O)CSc2nnc(-c3snnc3C)n2C2CC2)cc1	0.02	-0.32
Cc1cc(NS(=O)(=O)c2ccc(NC(=O)COc3ccc(Br)cc3)cc2)nc(C)n1	0.39	1.3
Cc1ccc(CNC(=O)C2(NC(=O)Nc3ccc(C)cc3)CCCCC2)cc1	0.18	-0.99
CCSc1ccccc1C(=O)Nc1cccc(OC)c1	0.17	0.48
NC(=O)C1CCN(C(=O)c2ccc(Oc3ccccc3)cc2)CC1	0.73	0.8
O=C(O)C1=C[C@H](c2ccccc2)C[C@H](OCc2ccc(CO)cc2)O1	0.01	-0.09
Cc1ccc([N+](=O)[O-])cc1NC(=O)C1CCN(S(C)(=O)=O)CC1	0.6	-0.21

Ordered by length of the SMILES (smallest number first): part of the list above
molecule	KCNQ2 pot	KCNQ2 pot baseline
CC/C(=N\Nc1nncc2ccccc12)c1ccc(F)cc1	0.01	-1.3
Cc1ccc(C(=O)CSc2nnc(-c3snnc3C)n2C2CC2)cc1	0.02	-0.32
Cc1ccc(CNC(=O)C2(NC(=O)Nc3ccc(C)cc3)CCCCC2)cc1	0.18	-0.99

Further records.
molecule	KCNQ2 pot	KCNQ2 pot baseline
COc1ccccc1/C=C/CN1CCCCC1	0.51	0.08
Nc1ncnc(Nc2ccccc2Cl)n1	1.7	-1.1
COc1ccccc1CNC(=O)COc1ccc(S(=O)(=O)N2CCOCC2)cc1	0.03	1
CCOc1cc(N2CCOCC2)c(OCC)cc1NC(=O)Cc1cn2ccsc2n1	1.6	1.8
Cc1ccc(C)c(C(=O)CCC(=O)Nc2ccc(F)cc2)c1	0.43	0.02
Cc1ccc(NC(=O)Cn2cc(C=O)c3ccccc32)cc1C	2.4	0.06
Cc1cc(Cl)ccc1Oc1nc(-c2ccccc2)ncc1S(C)(=O)=O	0.02	-0.72
COc1ccc(/C(N)=N/OC(=O)c2ccc3c(c2)OCO3)cc1	0.89	0.1
Cc1ccc(NC(=S)NCC(C)C)cc1	3	-1.4
CCOc1ccc(N2CC(C(=O)Nc3ccccc3C(=O)NC3CC3)CC2=O)cc1 (stereo not drawn)	0.08	-1.2
COc1ccc(-c2nnc(SCCC(=O)O)n2-c2ccccc2)cc1OC	0.35	-1.1
O=S(=O)(Cc1ccccc1)N1CCN(Cc2ccccc2)CC1	0.9	-1.3
COc1ccc(NS(=O)(=O)c2ccc(N/N=C/c3ccc(N4CCOCC4)cc3)c([N+](=O)[O-])c2)cc1	0.82	0.16
CCN(CC)c1ccc(/C=N/NC(=O)Nc2nonc2N)cc1	0.26	0.64
COc1ccc(C2C(C(=O)N3CCN(C)CC3)c3ccccc3C(=O)N2C2CCCCC2)cc1 (stereo not drawn)	0.29	-0.09
COc1cc(C(=O)OCCCN2CCCN(CCCOC(=O)c3cc(OC)c(OC)c(OC)c3)CC2)cc(OC)c1OC	2.1	-2.6
S=C(NCc1ccco1)Nc1ccc(Oc2ccc(Cl)cc2)cc1	0.39	-0.02
CC1CCCN(CCCNC(=O)CN2C(=O)COc3ccccc32)C1 (stereo not drawn)	0.74	-2
CCOc1ccc(-n2c(C)nc3cc(C(=O)NCCN4CCOCC4)ccc32)cc1	0.78	-0.95
COCCN(CC1CCCN(C2Cc3ccccc3C2)C1)C(=O)CCC(C)=O (stereo not drawn)	0.68	-2.3

The results go on:
SMILES	KCNQ2 pot	KCNQ2 pot baseline
CCOC(=O)Cn1nc(/C=C/c2ccc(C)cc2)ccc1=O	1.4	-0.5
CC1(C)CC(=O)C(N=Nc2cc(S(=O)(=O)N3CCOCC3)ccc2Cl)=C(O)C1	1.6	-2.3
CC(OC(=O)CN1C(=O)c2ccccc2C1=O)C(=O)NC1CCCC1 (stereo not drawn)	0.13	2.7
Cn1nc(C(=O)Nc2ccc(S(=O)(=O)N3CCCCC3)cc2)c2ccccc2c1=O	0.41	-0.41
CCCNC(=S)Nc1ccc(CC(=O)OC)cc1	1.6	0.31
CCN(CC)c1ccc(N2C(=O)/C(=C/c3ccccn3)SC2=S)cc1	1.1	0.76
Nc1nnc(SCc2cccc(C(F)(F)F)c2)s1	0.54	-0.25
COc1cc(CNC(C)C23CC4CC(CC(C4)C2)C3)ccc1OCC(=O)NC(C)(C)C (stereo not drawn)	0.82	-0.16
COc1ccc(C(=O)NCCS(=O)(=O)N2CCc3ccccc3C2)cc1	0.46	-2.8
O=C(C1CCN(S(=O)(=O)c2cccnc2)CC1)N1CCN(c2ccccc2Cl)CC1	0.88	0.33
COc1ccc(OC)c(NC(=O)c2ccc(S(=O)(=O)N3CCOCC3)cc2)c1	0.08	-0.18
CC(C)(C)NC(=O)c1cc(C(C)(C)C)c(O)c(C(C)(C)C)c1	0.07	1.2
O=C(N/C(=C\c1cccs1)C(=O)N1CCOCC1)c1cccs1	0.91	0.41
CCc1ccc(-c2nnn(CCC#N)n2)cc1	0.29	-0.84
CCOC(=O)C1CCN(C(=O)c2cc(CN3C(=O)c4ccccc4C3=O)ccc2OCC)CC1	2.9	0
Cc1ccc(C(=O)Nc2ccccc2C(=O)NCc2cccnc2)cc1	0.77	-1.8
Cc1ccc(S(=O)(=O)Nc2ccc(Nc3ccccc3)cc2)cc1	1.8	-0.62
O=C(NCC(=O)N(c1ccc2c(c1)OCO2)C(C(=O)NC1CCCC1)c1cccs1)c1ccco1 (stereo not drawn)	0.46	-0.02
C[C@@H](O)C1NC(=O)[C@H](CCCCN)NC(=O)c2cc([N+](=O)[O-])cc(I)c2OCC[C@@H](C(N)=O)NC1=O (stereo partly drawn)	1.8	0.73
Cc1cccc(C(=O)Nc2nnc(S(=O)(=O)N(C)Cc3ccco3)s2)c1	0.2	0.25
Cc1cc(N/N=C/c2ccccc2O)nc(N2CCOCC2)n1	1.4	0.06
Cc1ccc(NC(=O)Cn2cc(C(=O)C3CC3)c3ccccc32)c(C)c1	2.2	0.75
Nc1ccc(SCc2cccnc2)cc1	0.15	-0.3
CN(CCCC(=O)O)c1ccc(N=Nc2ccc([N+](=O)[O-])cc2)cc1	0.14	-0.95
COc1ccc(C(=O)On2c(-c3ccc(Br)cc3)nc3ccccc3c2=O)cc1	2.6	1.1
CCn1c(SCC(=O)N2CCCCCC2)nc2ccccc2c1=O	0.28	-1.1
CC(C)c1c(O)nc(SCC(=O)Nc2ccc3c(c2)CCC3)[nH]c1=O	1.9	0.29
COc1ccc(CCN2C(=S)N(c3ccccc3)C(=O)C2CC(=O)O)cc1OC (stereo not drawn)	1.3	-1
Cc1ccc(C#N)c(SCc2cccc(Br)c2)n1	0.53	0.22
COc1ccc(OC)c(CCNC(=O)Cn2nc(C)c3c(C)n(-c4ccccc4)nc3c2=O)c1	1.6	-2.9
COC(=O)c1sccc1NC(=O)CSCCc1ccncc1	0.19	1.1
CN(C)S(=O)(=O)Nc1ccc(NS(=O)(=O)N(C)C)c(S(=O)(=O)c2ccccc2)c1	0.02	0.09
COc1ccc(-c2cc(C(F)(F)F)n3nc(C(=O)NCc4ccco4)cc3n2)cc1OC	-5.6	·
Oc1c(Cl)cc(Cl)cc1C=Nc1ccc2c(c1)OCCO2	8.5*	1.7*
NS(=O)(=O)c1ccc(N/C=C\C(=O)c2ccncc2)cc1	0.12	-0.02
Nc1cc(=O)[nH]c(SCC(=O)Nc2ccc([N+](=O)[O-])cc2)n1	0.14	1.9

Structures from the list above that contain a thiophene ring, fused or not, in the order listed:
SMILES	KCNQ2 pot	KCNQ2 pot baseline
O=C(NCCN1CCOCC1)c1cc(-c2cccs2)nc2ccccc12	0.5	2.2
O=S(=O)(Nc1nccs1)c1ccc(NS(=O)(=O)c2cccs2)cc1	1.1	0.31
O=C(N/C(=C\c1cccs1)C(=O)N1CCOCC1)c1cccs1	0.91	0.41
O=C(NCC(=O)N(c1ccc2c(c1)OCO2)C(C(=O)NC1CCCC1)c1cccs1)c1ccco1 (stereo not drawn)	0.46	-0.02
COC(=O)c1sccc1NC(=O)CSCCc1ccncc1	0.19	1.1

Additional entries follow.
SMILES	KCNQ2 pot	KCNQ2 pot baseline
CCOc1ccc(CCNC(=O)C2CCCN(S(=O)(=O)N3CCOCC3)C2)cc1OCC (stereo not drawn)	0.03	0.22
CC(C)(C)CN1C(=O)C(=O)NC[C@H]1Cc1ccc(O)cc1	2.3	-0.75
CC(C)CNS(=O)(=O)c1ccc(C(=O)Nc2ccc3c(c2)OCO3)cc1	1.4	0.23
O=C(NCCc1ccccc1)C1c2ccccc2C(=O)N1C1CC1 (stereo not drawn)	0.92	-0.9
CCN1C(=O)CC(N2CCC(c3nc4ccccc4[nH]3)CC2)C1=O (stereo not drawn)	0.51	-0.18
Cc1ncc(CO)c(/C=N/N=C/c2ccccc2O)c1O	1.6	0.03
COc1cc2ncnc(NCc3ccc(F)cc3)c2cc1OC	1.9	-0.98
CN(C)c1ccc(C=C(c2nnnn2-c2ccccc2)c2nnnn2-c2ccccc2)cc1	0.27	0.2
COC(=O)/C=c1\sc2n(c1=O)C(C)=CC(C)(C)N=2	0.92	-1.3
O=[N+]([O-])c1cc(Br)c(O)c(/C=N/Nc2nc3ccccc3s2)c1	3.5	1.8
COc1ccc(C(=O)N/N=C/c2ccc(OC)c(OS(=O)(=O)c3ccccc3)c2)cc1	0.78	-0.48
Cc1onc(-c2c(F)cccc2Cl)c1C(=O)ONC(=O)c1ccco1	1.5	-0.31
COc1ccccc1-n1c(-c2ccc(F)cc2)coc1=O	0.92	1.4
CC(C)Cn1c(CN2C(=O)c3ccccc3C2=O)nc2ccccc2c1=O	0.85	0.67
CN1CCN(/C=N/c2c(C#N)cnn2Cc2ccccc2)CC1	0.19	1.4

Source: PubChem (Johns Hopkins Ion Channel Center)

Not all compounds are listed; the hit share may differ from the screen's.
